Bioassay records deposited in PubChem BioAssay by several laboratories.
CSC inhib: cancer stem cell viability inhibitors, primary screen, luminescence. AID 2717, 2010. inhibition, % at 7.5 µM. cancer stem cell-like cells viability. hit rate 1.1% among 300,000;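 active = mean at 75% or more and at least half the replicates too; inconclusive = mean and replicates disagree; tested in HMLE shEcad cells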;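 note: 0% = median of negative and 100% = median of positive control wells; the first replicate is given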
MT1-MMP act inh: blockers of MT1-MMP proenzyme processing, primary screen, HT1080 RFP-PRO-GFP cells, GFP/RFP fluorescence; GFP/RFP ratio change, % at 20 µM; hit rate 0.061% among 360,000; AID 651647, 2012; GFP/RFP ratio fluorescence, overnight; percent of plate control window, DMSO zero; Matrix metalloproteinase-14 (Homo sapiens), P50281;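 active = GFP/RFP ratio change of at least 30% with cell ATP level not reduced by more than half and red fluorescence within 50% of control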; note: strong numbers were not always called active
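Material – HT1080 RFP-PRO-GFP cells · Control set – DMSO wells and RFP-L50D-GFP cells · Incubation – overnight cell settling, then overnight compound exposure, 37 °C, 5% CO2 · Compound dosing – single-point 20 µM compound, 1% DMSO · Read-out – GFP/RFP fluorescence ratio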
Yeast UUG start: modulators of yeast start codon fidelity, primary screen, whole organism, S. cerevisiae, single point, plate reader; hit rate 0.13% among 350,000; activity score, % at 18.7 µM; S. cerevisiae UUG-firefly luciferase reporter, luminescence/redox ratio; AID 602363, 2012;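 active = replicate mean at a twofold rise or more, about +100% in these data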;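 note: firefly luciferase made from a UUG start codon reports start codon fidelity; reporter light over untreated wells divided by growth signal over untreated wells; some hits fall short of that in this replicate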
Rce1 inh: yeast Rce1p protease inhibitors, primary screen, biochemical, fluorescence, cell-free homogeneous | AID 2563, 2010 | hit rate 0.27% among 290,000 | calls only | yeast membranes, quenched prenylated peptide cleavage fluorescence;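 active = fall in fluorescence gain of 50% or more versus controls, with final raw signal at or below 3038400; inconclusive = same 50% fall but final raw signal above 3038400; inactive = fall in fluorescence gain under 50%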;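 note: plate controls were neutral control wells for no effect and wells lacking membranes for full effect; tested at 10 µM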
HIV Env fusion: inhibitors of HIV-1 Env-driven cell-cell fusion, primary screen, HeLa-JRFL effector, CEM21 target cells, luciferase | inhibition, % at 12.3 µM | hit rate 1.1% among 360,000;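 active = mean replicate inhibition score of at least 50 and every replicate individually at or above 50; inconclusive = only one of the two criteria met; inactive = mean below 50 and not all replicates reaching 50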;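 note: 0% = plate neutral controls and 100% = maraviroc near 300 nM; one replicate is shown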
PABP FP inh: PABP poly(A) RNA binding inhibitors, primary screen, biochemical, fluorescence polarization, uHTS; Polyadenylate-binding protein 1 (Homo sapiens), P11940; inhibition, % at 35 µM; hit rate 1% among 290,000;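 active = 50% or more with normal probe brightness, or confirmed in later tests; inconclusive = above 50% with abnormal brightness, or retests that disagree; inactive = below 50% or failed in later tests; about a fifth of its hits are not listed in these tables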;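 note: calls also rest on retests at 20 µM and on dose response follow-up; controls were probe without protein and protein plus probe with vehicle; some compounds called inactive have numbers as strong as hits; many hits fall short of the cut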
Target sequence (P11940 whole entry, looked up): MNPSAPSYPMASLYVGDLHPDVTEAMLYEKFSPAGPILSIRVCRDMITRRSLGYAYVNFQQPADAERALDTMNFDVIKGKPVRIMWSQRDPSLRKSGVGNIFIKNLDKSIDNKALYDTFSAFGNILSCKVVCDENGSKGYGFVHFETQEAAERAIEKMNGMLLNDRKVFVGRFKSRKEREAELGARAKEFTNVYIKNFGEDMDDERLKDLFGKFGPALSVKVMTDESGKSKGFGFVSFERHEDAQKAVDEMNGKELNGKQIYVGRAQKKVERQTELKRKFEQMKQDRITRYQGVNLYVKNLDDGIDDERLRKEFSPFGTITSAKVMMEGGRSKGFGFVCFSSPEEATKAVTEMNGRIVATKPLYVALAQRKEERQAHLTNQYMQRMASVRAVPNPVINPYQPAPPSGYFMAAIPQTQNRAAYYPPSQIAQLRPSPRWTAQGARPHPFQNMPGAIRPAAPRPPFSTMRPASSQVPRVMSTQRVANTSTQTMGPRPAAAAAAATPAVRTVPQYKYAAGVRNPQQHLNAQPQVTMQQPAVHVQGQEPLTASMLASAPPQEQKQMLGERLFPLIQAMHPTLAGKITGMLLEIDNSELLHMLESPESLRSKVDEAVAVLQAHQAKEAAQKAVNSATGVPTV
eIF4H FP inh: human eIF4H binding inhibitors, primary screen, translation initiation inhibitor project, biochemical, uHTS, fluorescence polarization; eIF4H fluorescence polarization binding assay; inhibition, % at 35 µM; hit rate 0.94% among 290,000; AID 2012, 2009; Eukaryotic translation initiation factor 4H (Homo sapiens), Q15056;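 active = 50% or more with normal probe brightness, or confirmed in later tests; inconclusive = above 50% with abnormal brightness, or retests that disagree; inactive = below 50% or failed in later tests; about a fifth of its hits are not listed in these tables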;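 note: calls also rest on retests at 20 µM and on dose response follow-up; 0% = protein and probe with vehicle and 100% = probe without protein; strong numbers were not always called active; many hits fall short of the cut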
eIF4H FP inh retest: further read-out of eIF4H FP inh, marked with its call; inhibition, %; compound at 20 µM; confirmation average;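 mean of two retest wells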
PABP FP inh retest: second read-out of PABP FP inh, no call of its own (marks repeat the call); inhibition, %; compound at 20 µM; confirmation repeats;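 mean of two retest wells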
MT1-MMP act inh RFP: second read-out of MT1-MMP act inh, no call of its own (marks repeat the call); RFP signal change, %; measured here: RFP expression control read;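 0 = vehicle wells; hits needed this value within 50% of zero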
An asterisk follows results filed as active; i = inactive; ? = inconclusive; nt = no result given. Only part of the results is shown, so the mix of outcomes need not match the whole.

SMILES	CSC inhib	MT1-MMP act inh	MT1-MMP act inh RFP	Yeast UUG start	Rce1 inh	HIV Env fusion	PABP FP inh	eIF4H FP inh	others
CCc1nc(C(N)=O)c2[nH]c(=O)n(-c3ccccc3F)c2n1	-14	1	5	-13	i	15	nt	nt
Cn1c(/C(C#N)=C(\O)c2cc(Cl)sc2Cl)nc2ccccc21	24	-15	-8	2	i	29	3	3
CC(CNc1ccc([N+](=O)[O-])c2cccnc12)Nc1c([N+](=O)[O-])cc(C(F)(F)F)cc1[N+](=O)[O-] (centres undefined)	23	4	1	-14	i	5	-4	1
CC(=O)c1ccc(NC(=O)CSc2nc3ccccc3c(=O)n2CCCN2CCOCC2)cc1	-2	2	8	-15	nt	nt	nt	nt
O=C1CC(c2ccccc2)Cc2nc(N3CCc4ccccc4C3)ncc21 (centres undefined)	58	-2	-3	nt	i	5	-5	-10
COC(=O)c1ccc(CSc2nnnn2Cc2ccccc2)cc1	7	-2	-6	-12	i	-1	-6	-5
COc1cc(C(C(=O)NC(C)(C)C)N(C(=O)CNC(=O)c2cccs2)c2cccnc2)cc(OC)c1OC (centres undefined)	-2	0	3	-15	i	4	-1	-12
O=C(/C=C/c1ccc(F)cc1)NCCc1ccc2c(c1)OCCO2	-3	0	1	-3	i	nt	-1	-7
Cc1ccc(S(=O)(=O)N2C[C@@H](C)[C@]3(C2)[C@H](O)[C@H](OC(=O)NCc2ccco2)C[C@H]2C(=O)N(c4ccccc4)C(=O)[C@H]23)cc1	nt	-1	0	15	nt	-16	nt	nt
COc1ccc(-c2cc(C(=O)NCc3ccco3)c3ccccc3n2)c(OC)c1	-12	0	-1	14	i	nt	6	-4
COc1ccc(C2CC(c3ccc(Br)cc3)Nc3nc(N)nn32)cc1 (centres undefined)	-19	-4	-1	3	nt	-30	1	-5
O=C(O)c1ccc(NC(=S)NC(=O)c2ccc(-c3ccccc3)cc2)cc1	-11	-10	-7	nt	i	-138	-1	7
S=C1NCCOCCOCCOCCNC(=S)NCCOCCOCCOCCN1	-10	4	4	-28	i	-9	3	-5
CC(=O)Nc1nc(-c2ccc3c(c2)CCO3)cs1	-2	-3	-4	nt	i	-40	4	-12
O=C(NCc1cn2ccsc2n1)c1c(F)cccc1Cl	1	2	4	-23	i	-7	5	-5
CCN(CC)CCP(=O)(c1ccccc1)c1ccccc1	-10	2	4	-4	i	-150	-7	-13
CN(N=Cc1ccccc1O)c1ccc2ccccc2n1	nt	3	-1	17	nt	-194	nt	nt
Cc1c(Cl)cccc1NC(=S)NCc1cccs1	-5	0	-2	nt	i	1	-2	-5
Cc1ccc(NC(=O)c2cc(S(=O)(=O)c3ccccc3)ccc2Cl)cc1	-10	nt	nt	-15	i	nt	-11	7
CCSc1ccc(-c2cc(NC=O)c3ncc(-c4cc(OC)c(OC)c(OC)c4)n3c2)cc1	nt	-14	-9	-19	nt	6	nt	nt
O=C1CS(=O)(=O)N(Cc2ccc(F)cc2)c2ccccc21	nt	6	1	0	nt	-17	nt	nt
CCCCCCSc1ccc([C@@H]2[C@H]3C(=O)N(CC)C(=O)[C@H]3[C@]3(C(=O)OC)CCCCN23)cc1	nt	-8	-2	-5	nt	9	nt	nt
CCC(=O)N1c2ccc(S(=O)(=O)NCc3ccccc3)cc2CC1C (centres undefined)	-10	2	-10	-3	i	-2	-8	-6
CNC(=S)N1CCN(c2ccc(Cl)c(Cl)c2)CC1	nt	-1	-7	nt	i	5	-11	-4
COc1ccc(C(CNC(=O)CCOc2ccccc2)N(C)C)cc1 (centres undefined)	-3	1	-1	-14	i	-24	-9	-5
O=C(CNc1ccccc1F)N/N=C/C1CC=CCC1 (centres undefined)	-18	1	2	nt	i	-5	-7	-6
O=C(COC(=O)c1c(Cl)cccc1Cl)NC1CCCCCCC1	12	3	0	-16	nt	nt	nt	nt
Cc1ccccc1N1CCN(C2CCCN(C(=O)c3cn4c(C)cccc4n3)C2)CC1 (centres undefined)	12	2	-2	-17	i	13	-1	-7
Cc1ccc(C(=O)NCCC(=O)N2CCC3(CC2)NCCc2[nH]cnc23)cc1	-7	0	2	nt	i	2	6	-10
CS(=O)(=O)N1CCC(C(=O)Nc2ccc(F)c(Cl)c2)CC1	-11	4	0	-19	i	-12	2	-9
Cc1ccc(-n2c(-c3cc(-c4ccco4)[nH]n3)n[nH]c2=S)c(Br)c1	-10	2	5	nt	i	-14	45*	?	PABP FP inh retest=120*
N#Cc1c(C(F)(F)F)cc(-c2ccc(F)cc2)[nH]c1=O	-4	0	-2	nt	i	1	11	2
O=C(O)c1ccc(Cl)c(S(=O)(=O)NC(Cc2c[nH]c3ccccc23)C(=O)O)c1 (centres undefined)	3	-4	2	-10	i	-41	7	-10
CC(C)C(C(=O)Nc1nccs1)c1ccc(Cl)cc1 (centres undefined)	-6	-14	-7	2	i	30	?	-5
CC1(c2nnc(-c3ccc(F)cc3)o2)CC(c2c(Cl)cccc2Cl)=NO1 (centres undefined)	17	-1	-4	-14	i	6	4	-6
NC(=O)c1ccc(Oc2ccc(C(N)=O)cc2)cc1	-3	-4	-3	-14	i	-10	0	-6
COc1cc2c(cc1NC(=O)C1CCCO1)oc1ccccc12 (centres undefined)	15	1	-1	-1	i	-221	-4	-3
CCOc1cc(NC(=S)NCc2ccco2)c(OCC)cc1NC(=O)CC(C)C	-18	4	5	nt	i	-8	-13	-2
O=C(O)Cc1ccc2c(c1)Cc1cccnc1O2	nt	0	4	5	nt	0	nt	nt
CCCc1cc(=O)[nH]c2nnc(SCC(=O)NCc3ccc4c(c3)OCO4)n12	-2	4	8	-2	i	-1	nt	nt

As a short view, some entries already given.
SMILES	CSC inhib	MT1-MMP act inh	MT1-MMP act inh RFP	Yeast UUG start	Rce1 inh	HIV Env fusion	PABP FP inh	eIF4H FP inh	others
CS(=O)(=O)N1CCC(C(=O)Nc2ccc(F)c(Cl)c2)CC1	-11	4	0	-19	i	-12	2	-9
Cc1ccc(-n2c(-c3cc(-c4ccco4)[nH]n3)n[nH]c2=S)c(Br)c1	-10	2	5	nt	i	-14	45*	?	PABP FP inh retest=120*
N#Cc1c(C(F)(F)F)cc(-c2ccc(F)cc2)[nH]c1=O	-4	0	-2	nt	i	1	11	2
O=C(O)c1ccc(Cl)c(S(=O)(=O)NC(Cc2c[nH]c3ccccc23)C(=O)O)c1 (centres undefined)	3	-4	2	-10	i	-41	7	-10
CC(C)C(C(=O)Nc1nccs1)c1ccc(Cl)cc1 (centres undefined)	-6	-14	-7	2	i	30	?	-5
CC1(c2nnc(-c3ccc(F)cc3)o2)CC(c2c(Cl)cccc2Cl)=NO1 (centres undefined)	17	-1	-4	-14	i	6	4	-6
NC(=O)c1ccc(Oc2ccc(C(N)=O)cc2)cc1	-3	-4	-3	-14	i	-10	0	-6
COc1cc2c(cc1NC(=O)C1CCCO1)oc1ccccc12 (centres undefined)	15	1	-1	-1	i	-221	-4	-3
CCOc1cc(NC(=S)NCc2ccco2)c(OCC)cc1NC(=O)CC(C)C	-18	4	5	nt	i	-8	-13	-2
O=C(O)Cc1ccc2c(c1)Cc1cccnc1O2	nt	0	4	5	nt	0	nt	nt
CCCc1cc(=O)[nH]c2nnc(SCC(=O)NCc3ccc4c(c3)OCO4)n12	-2	4	8	-2	i	-1	nt	nt

Next records follow.
SMILES	CSC inhib	MT1-MMP act inh	MT1-MMP act inh RFP	Yeast UUG start	Rce1 inh	HIV Env fusion	PABP FP inh	eIF4H FP inh	others
O=C(NNS(=O)(=O)c1ccccc1[N+](=O)[O-])c1ccc(F)cc1	3	1	-5	nt	i	-16	13	-1
Cc1ccc(Cn2c(=O)c3ccccc3n3c(SCC(=O)N4CCCCC4C)nnc23)cc1 (centres undefined)	2	-10	-9	nt	nt	6	-6	-1
CC(C)NC(=O)N1CC(c2ccccc2)C(c2ccc(Cl)cc2)=N1 (centres undefined)	-12	-2	-8	2	i	-11	1	3
Cc1cc(C)nc(NS(=O)(=O)c2ccc(NC(=O)C3(c4ccc([N+](=O)[O-])cc4)CCCC3)cc2)n1	7	3	-3	-2	i	-14	-10	-10
CC(C)CC(=O)Nc1cccc(-c2cn3ccsc3n2)c1	6	-1	2	-16	i	nt	29	8
CCCCN(C(=O)c1ccc([N+](=O)[O-])s1)c1c(N)n(CC(C)C)c(=O)[nH]c1=O	-3	0	2	nt	i	-4	nt	nt
O=C(Cc1csc(N2CCOCC2)n1)N/N=C/c1ccc(O)c(O)c1O	nt	2	5	-19	i	8	5.3*	72	eIF4H FP inh retest=26;PABP FP inh retest=79*
Cc1nc(N2CCN(c3ccccc3O)CC2)c2c(-c3ccccc3)csc2n1	46	-2	-6	-8	i	11	71*	100*
CCc1cc2cc(C(=O)Nc3ccc(F)cc3)sc2s1	-1	2	-4	-17	i	-33	-11	-3
CC1CCN(S(=O)(=O)c2ccc3c(c2)N(CC(=O)NCCCOC(C)C)C(=O)CS3)CC1	-10	-2	1	17	i	2	nt	nt
CC(C)CCNC(=O)NC(=O)CSc1ncccn1	-4	-3	-1	nt	i	-8	1	-3
O=C(CCC(=O)Nc1ccc(F)cc1)N/N=C/c1cccnc1	3	6	8	-14	i	-1	4	-4
O=C(Cc1c(O)c2ccccc2oc1=O)c1ccc(C(F)(F)F)cc1	-3	-5	-1	-4	i	9	?	?
CN(C)C(CNC(=O)c1ccc2[nH]c(=O)c(=O)[nH]c2c1)c1ccco1 (centres undefined)	nt	2	-1	4	nt	2	nt	nt
O=C(CCNS(=O)(=O)c1ccc(Cl)cc1)NCc1cccs1	19	nt	nt	-5	i	33	1	-6
CCn1c(=N)c(S(=O)(=O)c2ccc(C)cc2)cc2c(=O)n3ccccc3nc21	-8	nt	nt	nt	i	11	-2	2
O=S(=O)(c1cc(F)ccc1F)N1CCN2CCCC2C1 (centres undefined)	-5	-1	2	-13	i	4	0	-10
COc1cccc(-n2c(SCC(=O)NCC3CCCO3)nc3c(c2=O)SCC3)c1 (centres undefined)	-3	-3	1	-11	i	-11	2	-5
CCOC(=O)CCNC(=O)CCNC(=O)C(c1ccccc1)c1ccccc1	-10	5	2	nt	i	11	-2	5
COc1ccc(C2=NOC3(CC(=O)N(c4ccc(Cl)cc4)C3=O)C2)c(OC)c1 (centres undefined)	4	-1	6	-14	i	nt	-1	4
COc1ccc(CC(=O)NC(C)c2nnc(SCC(=O)Nc3ccccc3)n2C)cc1 (centres undefined)	1	-3	-3	2	i	-6	49	5
CCCNc1nc(N2CCOCC2)nc(N2CCOCC2)n1	-7	-2	4	5	i	-19	9	-6
